Compound activity deposited in PubChem BioAssay by National Center for Advancing Translational Sciences (NCATS).
HPGD block – inhibitors of human 15-hydroxyprostaglandin dehydrogenase (HPGD); P15428; purified HPGD, NADH fluorescence kinetic, PGE2 substrate; Potency, µM, for inactives: at the top dose activity change, negative = inhibition, actives largely listed as inhibitors; 150,000 tested, 4.3% active; active = well fitted inhibition curve with a large enough effect (not every such curve was filed as active); inconclusive = small, poorly fitted or top-dose-only effect, or another doubt; inactive = no such curve, though single readings can be large or run the other way;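 also: top concentration of the series not given in the record; plate controls included wells without enzyme; inactives centre near -10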
Target sequence (P15428 whole entry, looked up): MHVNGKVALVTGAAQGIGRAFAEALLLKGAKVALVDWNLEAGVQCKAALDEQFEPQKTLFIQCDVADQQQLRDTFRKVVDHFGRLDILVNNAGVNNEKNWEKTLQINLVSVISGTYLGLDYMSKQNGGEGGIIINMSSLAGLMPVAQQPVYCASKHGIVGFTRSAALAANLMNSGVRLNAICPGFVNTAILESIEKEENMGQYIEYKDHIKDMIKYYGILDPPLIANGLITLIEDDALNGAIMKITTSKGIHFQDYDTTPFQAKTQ
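NADH formation kinetics: reaction with 30 uM PGE2 and 1 mM NAD+ (final), 20 nM enzyme, Tris-HCl pH 8 with Tween 20, after 15 min compound preincubation at room temperature. Fluorescence change, last versus first of five reads.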
Active calls of the source: *; ? = inconclusive; & = joins results of further samples. % is scaled to controls: 0 for no effect and ±100 for the full control effect; potency is read from the fitted curve at half-maximal effect. Some of the compounds tested. The share of hits here may be higher or lower than overall.

| structure | HPGD block |
| --- | --- |
| COc1ccc(NC(=O)[C@H](CCS(C)(=O)=O)N2Cc3ccccc3C2=O)c(OC)c1 | 1% |
| CC1Cc2cc(/C(O)=C3\C(=O)C(=O)N(CCN4CCOCC4)C3c3ccccc3F)ccc2O1 (configuration not stated) | -4% |
| Cc1cc(C)c2cc(CN(Cc3ccc4c(c3)OCO4)Cc3nnnn3Cc3ccco3)c(=O)[nH]c2c1 | -28% |
| [O-]/[N+](=C/c1ccc(F)cc1)c1ccc(Cl)cc1 | -15% |
| CC(C)(C)NC(=O)C(c1ccc(O)cc1)N(Cc1ccco1)C(=O)Cn1nnc(-c2cccs2)n1 (configuration not stated) | 2% |
| COC(=O)c1c(C(=O)OC)n(CCCN)c2ccc(C)cc12 | ? |
| COc1cc(Cl)c(C)cc1NC(=O)CNC(=O)Cn1cnc2ccccc2c1=O | ? |
| COC(=O)C1(C)Nc2ccccc2C(=O)N1c1ccccc1OC (configuration not stated) | ? |
| O=C(Nc1ccc(-c2nc3ccccc3s2)cc1)C1=COCCO1 | ? |
| Cc1ccc2nsnc2c1S(=O)(=O)N1CCN(Cc2ccc3c(c2)OCO3)CC1 | -9% |
| Cc1cccc(C)c1NC(=S)NN(Cc1ccccc1)c1ccccc1 | -4% |
| CCN(C(=O)COc1cc(=O)n(CC)c2ccccc12)c1cc(Cl)ccc1OC | -7% |
| COc1ccc(COC(=O)c2nc3nc(C)cc(C)n3n2)cc1F | -25% |
| COC(=O)CSc1nnc(-c2ccccn2)n1Cc1ccco1 | -8% |
| Cc1ccc(-n2cnnn2)c(S(=O)(=O)N2CCOCC2)c1 | 1% |
| Cc1cc(NC(=O)C2CCC2)n(-c2ccccn2)n1 | -9% |
| O=C(CN(c1ccc2c(c1)OCCO2)S(=O)(=O)c1ccccc1)NCc1ccco1 | -6% |
| O=C(COC(=O)/C=C/c1ccccc1)Nc1cc(C(F)(F)F)ccc1N1CCOCC1 | -7% |
| Cc1ccc(-n2nc3c(c2NC(=O)c2ccc(Br)o2)CSC3)c(C)c1 | ? |
| CCOc1ccc(N(C(=O)c2cnsn2)C(C(=O)NC2CCCCC2)c2ccncc2)cc1 (configuration not stated) | -2% |
| CCOC(=O)/C(=N/Nc1ccccc1)Sc1nnnn1-c1ccc(C)cc1 | -14% |
| Cc1cc(-c2n[nH]c(=S)n2/N=C/c2cc([N+](=O)[O-])ccc2Cl)n[nH]1 | 25µM* |
| CCOC(=O)C(C)c1c(C)[nH]c(=S)[nH]c1=O (configuration not stated) | -3% |
| O=C(O)c1ccccc1-c1ccccc1C(=O)NNc1ccccc1 | -18% |
| CS(=O)(=O)OCCCCOS(C)(=O)=O | -1%&-5%&-3% |
| O=[N+]([O-])c1ccc(NCc2ccccn2)nc1 | -12% |
| Cc1ccc(S(=O)(=O)Nc2cccc3c2CCCC3)cc1 | -11% |
| OCC1CCCN(c2nc(CN3CCCCC3)nc3scc(-c4ccccc4)c23)C1 (configuration not stated) | -7% |
| CCCCn1c(=NC(=O)c2ccc3c(c2)OCO3)c(C#N)cc2c(=O)n3cccc(C)c3nc21 | -14% |
| COc1ccc(-c2c(NC(=O)c3ccco3)n(C)c3ccccc3c2=O)cc1 | -12% |

In the list so far, 2 contain two or more sulfur atoms:
| structure | HPGD block |
| --- | --- |
| Cc1ccc2nsnc2c1S(=O)(=O)N1CCN(Cc2ccc3c(c2)OCO3)CC1 | -9% |
| CS(=O)(=O)OCCCCOS(C)(=O)=O | -1%&-5%&-3% |

Later entries.
| structure | HPGD block |
| --- | --- |
| O=S(=O)(c1ccc2oc3ccc(S(=O)(=O)N4CCCCC4)cc3c2c1)N1CCCCC1 | -4% |
| C/C(=N\NS(=O)(=O)c1ccc(C)cc1)c1ccc(Br)s1 | -10% |
| Cc1nn(Cc2ccc(Cl)cc2)c(C)c1NC(=O)/C=C/c1cnn(C)c1 | -7% |
| C=CC[C@@H]1C=C[C@H](O/N=C/[C@@H](NS(=O)(=O)c2ccc(C)cc2)[C@H](C)/C=C/CC(=O)OC)[C@@H](CO)O1 | -12% |
| CC(=O)Nc1ccc(NC(=O)C(C)OC(=O)CNC(=O)c2sc3ccccc3c2Cl)cc1 (configuration not stated) | -13% |
| Cc1ccccc1Cn1c([N+](=O)[O-])cnc1C | -8% |
| O=C(CSc1nnc(Cc2cccs2)n1CCc1ccccc1)N1CCCc2ccccc21 | -12% |
| c1ccc(CNc2c3c(nc4ncnn24)CCCC3)nc1 | -23% |
| CCOc1ccc2nc(Cl)c(C3CC(c4ccccc4)=NN3C(=O)c3cccs3)cc2c1 (configuration not stated) | ? |
| COc1ccc(N(CC(=O)Nc2cc(C)on2)S(=O)(=O)c2cc(C)ccc2C)cc1 | -13% |
| O=C(C#Cc1ccccc1)c1ccc([N+](=O)[O-])cc1 | -6% |
| O=C1NC(=O)C(CC(=O)N(c2ccccc2)C2(C(=O)NC3CCCC3)CCCCC2)N1 (configuration not stated) | -5% |
| CC1(C)CC(=O)C2=C(C1)OC(N)=C(C#N)C2C#Cc1ccccc1 (configuration not stated) | 13µM* |
| CCC1=C2CC[C@H]3C(=O)NC(=O)[C@H]3[C@H]2[C@@]2(Cc3ccccc3)C(=NCC3CC3)OC(=O)N2C1=O | -6% |
| CCOC(=O)c1c(-c2ccccc2)oc2ccc(OCC)cc12 | ? |
| O=C(CSc1ccc(Cl)cc1)Nc1ccccc1N1CCN(C(=O)c2ccc(Cl)cc2)CC1 | -12% |
| Cc1cc(C(=O)N[C@H](c2ccccc2)[C@@]2(C)C[C@@H]2[C@@H](C)C(=O)Nc2ccc3ccccc3c2)n(C)n1 | -8%&-14% |
| COc1ccc(C(=O)C[n+]2ccc3c(c2)nc(-c2ccc(OC)cc2OC)n3C)cc1 | -9% |
| COc1cc(C(=O)O/N=C2/C=CC(=O)C(C)=C2C)cc(OC)c1OC | -7% |
| CC(C)(C)C(=O)Oc1cc(N)n(S(=O)(=O)c2ccccc2)n1 | -11% |
| CN(C)/C=N/C(=S)Nc1ccc(F)cc1 | -4% |
| CCCNC(=O)N1N=C(c2ccc(N)cc2)c2cc3c(cc2[C@H]1C)OCO3 | -28% |
| CCOC(=O)c1c(NC(=O)c2ccoc2C)sc(C(=O)N(C)C)c1C | ? |
| COc1ccc(CCNC(=O)c2nnn(CC(=O)Nc3ccccc3C)c2N)cc1OC | 3% |
| O=C1C2C3C=CC(C3)C2C(=O)N1CCc1ccccc1 (configuration not stated) | -23% |
| CC1(c2ccc(Cl)cc2)NC(=O)N(CC(=O)NC(=O)NCc2ccco2)C1=O (configuration not stated) | 1% |
| CCC(=O)Nc1nc(C)c(C(=O)NC2CCCCC2)s1 | -1% |
| O=C(Nc1ccc2c(c1)Cc1ccccc1-2)[C@@H]1[C@H](C(=O)O)[C@]2(Cl)C(Cl)=C(Cl)[C@@]1(Cl)C2(Cl)Cl | -16% |
| O=C(CN1CCCC1)N1c2ccccc2Sc2ccc(C(F)(F)F)cc21 | -12% |
| O=C(NNC(=O)C1CC2CCC1C2)c1sc2ccccc2c1Cl (configuration not stated) | -10% |
| COC(=O)C1=C(C)Nc2nc(SCc3ccccc3)[nH]c(=O)c2C1c1cccs1 (configuration not stated) | -29% |
| Cc1ccc(N(C(C)C(=O)Nc2ccccc2C(=O)N2CCOCC2)S(C)(=O)=O)cc1C (configuration not stated) | 3% |
| Cn1c(CNc2ccc(Cl)cc2)nnc1SCCN1CCCCC1 | 4% |
| O=S(=O)(NCCSc1nc2ccccc2o1)c1ccccc1 | -11% |
| CCOc1ccc(N(CC(N)=O)S(=O)(=O)c2ccc(F)cc2)cc1 | -1% |
| COc1ccc(NC(=O)Cc2c(F)cccc2Cl)c(OC)c1 | -2% |
| CCC(=O)N=C1SC2CS(=O)(=O)CC2N1c1cccc(OC)c1 (configuration not stated) | -3% |
| COc1ccc2cc(CN(Cc3cccnc3)Cc3nnnn3Cc3ccccc3)c(=O)[nH]c2c1 | -3% |
| Cc1cccc(NC(=O)N2CCC(c3nc4ccccc4o3)CC2)c1 | -1% |
| CC(=O)Nc1cccc(Oc2ccc3c(c2)C(=O)N(CCC(=O)O)C3=O)c1 | 25µM* |
| CC(C)(C)NS(=O)(=O)CC12CCC(CC1=O)C2(C)C (configuration not stated) | -4% |
| COC(=O)c1ccc(CSc2ccc3nnc(-c4ccccn4)n3n2)o1 | -12% |
| O=C(CCN1CCCCC1)c1ccc2c(c1)OCCO2 | -15% |
| COCCNC(=O)CS(=O)Cc1nc(-c2ccccc2C)oc1C (configuration not stated) | -1% |
| Cn1c(=O)c2c(SCC(=O)NCC3CCCO3)nc(-c3cccs3)nc2n(C)c1=O (configuration not stated) | -12% |
| NC(=O)N1OCC2COc3ccc4ccccc4c3C21 (configuration not stated) | -11% |
| O=C(OCCNC(=O)c1cc2ccccc2oc1=O)c1cccnc1 | -19% |
| O=C(Nc1nnc(-c2ccc(Cl)cc2)o1)c1ccccc1Br | -6% |
| CCCOc1ccc(N2C(=O)CC(N3CCN(S(=O)(=O)c4ccccc4)CC3)C2=O)cc1 (configuration not stated) | -13% |
| COCCn1c(C)cc(C(=O)CSc2nc3ccccc3s2)c1C | -23% |
| O=C(Cc1cccs1)NCc1cccnc1 | -3% |
| NNC(=O)COc1ncn(-c2ccccc2)n1 | -1% |
| O=C(NC1CC2CCC(C1)N2Cc1nnnn1Cc1ccco1)NC12CC3CC(CC(C3)C1)C2 (configuration not stated) | 21% |
| Fc1ccc2[nH]c3c(N4CCSCC4)ncnc3c2c1 | ? |
| COc1ccc(NC(=O)COC(=O)[C@@H]2CCCN2C(=O)c2cccs2)c(OC)c1 | 1% |
| Cc1c(Br)c([N+](=O)[O-])nn1C(C)C(=O)Nc1c(C)n(C)n(-c2ccccc2)c1=O (configuration not stated) | 0% |
| Cc1ccc(C)c2[nH]c(=O)c(CCNC(=O)c3cccs3)cc12 | ? |
| O=S(=O)(c1ccccc1)n1nc(-c2ccccc2)nc1NCc1ccco1 | -14% |
| COc1ccc2nc(NC(=O)CSC3=NCCS3)sc2c1 | -12% |
| CC(C)(C)c1ccc(C2(C)NC(=O)N(CC(=O)Nc3ccc4c(c3)OCO4)C2=O)cc1 (configuration not stated) | -3% |

Structural class: those above with a nitro group on carbon
| structure | HPGD block |
| --- | --- |
| Cc1cc(-c2n[nH]c(=S)n2/N=C/c2cc([N+](=O)[O-])ccc2Cl)n[nH]1 | 25µM* |
| O=[N+]([O-])c1ccc(NCc2ccccn2)nc1 | -12% |
| Cc1ccccc1Cn1c([N+](=O)[O-])cnc1C | -8% |
| O=C(C#Cc1ccccc1)c1ccc([N+](=O)[O-])cc1 | -6% |
| Cc1c(Br)c([N+](=O)[O-])nn1C(C)C(=O)Nc1c(C)n(C)n(-c2ccccc2)c1=O (configuration not stated) | 0% |

Next section
compound | HPGD block
Cc1ccc(NC(=O)CSc2nnc(-c3ccc(S(=O)(=O)N4CCOCC4)cc3)n2C)cc1 | -12%
COc1cc(CNC2CCCCCCC2)cc(Br)c1OCC#N | -2%
O=c1[nH]c(CN2CCN(C/C=C/c3ccccc3)CC2)nc2cc(Cl)ccc12 | -6%
COc1ccc(CNC(=O)OCCN2CCN(Cc3ccccc3)CCC2=O)cc1 | -5%
O=C(CSc1nnc(-c2ccc(O)cc2)n1Cc1ccccc1)NNC(=O)c1ccc(Br)cc1 | -7%
O=c1c2ccccc2nc(-c2ccccc2)n1/N=C/c1ccc([N+](=O)[O-])cc1 | -11%
C[C@@H]1NCC[C@H](CC(=O)O)[C@H]1CC(=O)O | -9%
NC(=NCCC[C@H](N)C(=O)O)NO | 3%
CCn1c(NC(=O)c2ccccc2)c(-c2cccs2)c(=O)c2ccccc21 | -8%
CCOc1ccc(/C=N/NC(=O)C(C)N(c2ccc(OC)cc2)S(C)(=O)=O)cc1 (configuration not stated) | -7%
CCCNC(=S)Nc1ccc(Cl)cc1Cl | -16%
CCc1ccccc1N1CC23C=CC(O2)C(C(=O)OC)C3C1=O (configuration not stated) | -12%
COc1ccc(CNC(=O)C(C)OC(=O)C23CC4CC(CC(O)(C4)C2)C3)cc1 (configuration not stated) | -16%
O=C(NCc1cccs1)c1cc2c(s1)CS(=O)(=O)C2 | -20%
CCC(=O)Nc1cccc(NC(=O)c2ccc3c(c2)OCCO3)c1 | -10%
O=C(c1ccc(Cl)c(S(=O)(=O)N2CCc3ccccc3C2)c1)N1CCN(c2ccccc2)CC1 | -7%
CC(=O)Nc1cccc(-c2nnc(SCC(=O)N3CCCCC3)n2C)c1 | -22%
COc1ccc(C(=O)Nc2ccc(Cl)cc2C(=O)NCCO)cc1 | ?
CCn1c(SCC(=O)c2ccc(C)cc2)nnc1-c1ccncc1 | 32µM*
Cc1ccc(NC(=S)/N=C(\N)Nc2nc(C)c3cc(C)ccc3n2)c(C)c1 | -16%

Retrieved one by one from the list above, 2 records:
compound | HPGD block
NC(=NCCC[C@H](N)C(=O)O)NO | 3%
Cc1ccc(NC(=O)CSc2nnc(-c3ccc(S(=O)(=O)N4CCOCC4)cc3)n2C)cc1 | -12%

The results go on:
compound | HPGD block
CC(=O)Nc1ccc(OCC(=O)c2cc(C)ccc2C)cc1 | -3%
Cc1ccc(S(=O)(=O)N2CCC(C(=O)N[C@@H](C)C(=O)NCC3CCCO3)CC2)cc1 (some centres not stated) | -14%
COc1ccc(-c2noc(CCN3C(=O)c4ccccc4C3=O)n2)cc1OC | -8%
COc1ccccc1N(CC(O)COc1c(C)cc(C)cc1C)S(=O)(=O)c1ccccc1 (configuration not stated) | -13%
CCC1(COC(=O)Nc2cccc(Cl)c2)COC1 | -29%
Cc1cc(C)c(OCC(=O)Nc2ccc(NC(=O)c3ccco3)cc2)c([N+](=O)[O-])c1 | -10%
Cc1ccc(NC(=O)COC(=O)c2ccn(C)n2)cc1 | -8%
Cc1c(OCc2ccccc2)c(=O)ccn1Cc1ccc(Cl)cc1 | -7%
COC(=O)COc1ccc(S(=O)(=O)Nc2ccc3c(c2)OCO3)cc1Cl | -14%
C/C(Cl)=C/CSc1nn2c(=O)c3ccccc3nc2s1 | -22%
Cc1ccccc1NC(=O)NCC1CCCO1 (configuration not stated) | -14%
